# GCN5L2 inh: blocks human GCN5L2 histone acetyltransferase; Potency, µM (highest dose often 58.9 µM), inactives show at the top dose activity change, negative = inhibition, most hits filed as inhibitors; Q92830; GCN5L2 HAT assay, ThioGlo1 CoA-SH fluorescence; 0.21% of 390,000 active
#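 GCN5L2 (20 nM) in 50mM HEPES pH 7.5, 0.1mM EDTA, 0.01% Tween-20 preincubated 15 min with compounds at room temperature. Reaction started with H3(1-25) 75uM, acetyl-CoA 70uM, ThioGlo1 50uM; CoA-thiol fluorescence (Ex340/Em540) read at 0 and 20 min.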
# FEN1 inhibitor: inhibitors of human flap endonuclease 1; Potency, µM (series often up to 114 µM), inactives show top-dose activity change, negative = inhibition, hits mostly inhibitors; P39748; 0.35% of 390,000 active; Recombinant FEN1 flap cleavage, fluorescence, 15 min; AID 588795; also: nearly all actives have a fitted effect of over 65% in size
# Target sequence (P39748 whole entry, looked up): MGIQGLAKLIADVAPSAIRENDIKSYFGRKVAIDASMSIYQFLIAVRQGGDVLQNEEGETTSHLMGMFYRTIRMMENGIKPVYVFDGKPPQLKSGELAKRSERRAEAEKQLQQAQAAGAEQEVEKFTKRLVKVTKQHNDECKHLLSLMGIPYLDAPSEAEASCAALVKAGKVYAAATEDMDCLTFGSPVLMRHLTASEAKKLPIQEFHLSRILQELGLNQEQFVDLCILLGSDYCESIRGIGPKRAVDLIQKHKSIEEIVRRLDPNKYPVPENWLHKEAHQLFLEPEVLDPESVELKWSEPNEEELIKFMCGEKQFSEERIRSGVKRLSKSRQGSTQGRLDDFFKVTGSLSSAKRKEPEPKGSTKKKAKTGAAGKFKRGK
#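 FEN1 at 10 nM preincubated with compounds 15 min at room temperature, then flap DNA substrate added at 50 nM final. Signal read at 0 and 15 min; concentration-response fitted with four-parameter Hill equation.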
# * = called active by the depositor; ? = inconclusive; . = no result given; & = joins results of further samples; [ ] = dose if it differs, or a comment. Calls follow the shape of the dose curve; as a rule, active = well fitted curve in the direction sought with a large enough effect; inconclusive = small, poorly fitted or top-dose-only effect, or another doubt; inactive = no such curve, though single readings can be large; an effect the other way counts as inactive or inconclusive. % is scaled to controls: 0 for no effect and ±100 for the full control effect; potency is read from the fitted curve at half-maximal effect. Only part of the results is shown, and most or all hits are left out here.
# Start of the data: the first 2 records as a preview:
FEN1 inhibitor | GCN5L2 inh | SMILES
-18% | -21% | Cc1c(C)n(C(=O)CN2CCN(c3ccccc3)CC2)c2ccccc12
-4% | 1% | CC1(C)N=C(N)N=C(N)N1c1ccc(F)cc1F

# The list itself, previewed entries included:
FEN1 inhibitor | GCN5L2 inh | SMILES
-18% | -21% | Cc1c(C)n(C(=O)CN2CCN(c3ccccc3)CC2)c2ccccc12
-4% | 1% | CC1(C)N=C(N)N=C(N)N1c1ccc(F)cc1F
8% | -9% | O=S(=O)(c1ccc(SCc2ccc(Br)cc2)nc1)N1CCOCC1
-3% | -2% | Cc1ccc(S(=O)(=O)ON=C2CCN(S(=O)(=O)c3ccccc3)CC2)cc1
-24% | -9% | Cc1ccc(-n2nc3c(N4CCC(C(=O)NC(C)c5ccccc5)CC4)nnc(C)c3c2C)cc1 (configuration not stated)
-10% | -16% | O=c1cc(CN2CCN(c3ccc(F)cc3)CC2)nc2sccn12
11% | -14% | O=C(CCOc1cccc(Br)c1)Nc1ccc(F)c(S(=O)(=O)N2CCOCC2)c1
-1% | -8% | CC1CC(=O)c2cnc(Nc3cccc(C(F)(F)F)c3)nc2C1 (configuration not stated)
? | -7% | COc1ccc(/C=N/Nc2ncnc3sc4c(c23)CCCC4)cc1O
14% | 0% | Cc1ccc(-c2nc(CSCC(=O)N3CCN(C(=O)c4ccco4)CC3)c(C)o2)cc1
-20% | -15% | Cc1nc(C)c(-c2csc(NCc3ccccc3)n2)s1
-17% | -12% | Cc1ccc(CCNC(=O)c2ccc3c(c2)N(Cc2ccc(F)cc2)CCS3)cc1
38%[activator] | -3% | CCOC(=O)C1CCCN(S(=O)(=O)c2ccc3c(c2)N(C(C)=O)CCO3)C1 (configuration not stated)
-5% | 1% | C[C@H](CO)N1C[C@H](C)[C@@H](CN(C)C)Oc2c(NS(=O)(=O)c3ccccc3)cccc2C1=O
9% | 3% | CN(c1ccccc1)S(=O)(=O)c1ccc(Cl)nc1
1% | -13% | CCN(c1ccccc1)S(=O)(=O)c1ccc(-c2cc(C)no2)s1
-19% | -7% | COc1ccccc1OCCCCN1CCN(C(c2ccccc2)c2ccccc2)CC1
-10% | -3% | COC(=O)c1ccc(CSc2nnc(CNC(=O)c3ccc(OC)cc3)o2)o1
3% | -6% | C=CCn1c(C)nnc1SCC(=O)Nc1cc(S(=O)(=O)N2CCCC2)ccc1Cl
-7% | -3% | CN(Cc1cccs1)C(=O)c1cc(S(=O)(=O)N2CCOCC2)ccc1F
7% | -15% | COc1cc2[nH]c(=O)n(Cc3ccccc3Cl)c(=O)c2cc1OC
-8% | -11% | Cc1ccc(/C=N/NC(=O)c2cc3c(s2)CCCC3)o1
-4% | -5% | CN(C)S(=O)(=O)c1cc(NC(=O)c2ccc(-n3ccnc3)c([N+](=O)[O-])c2)ccc1Cl
-4% | -8% | C[C@@H]1COC(=O)[C@H](Cc2ccc(F)cc2)C/C=C\C[C@@H](CC(=O)N[C@H](CO)Cc2ccccc2)C(=O)N1
-6% | 1% | O=C(c1ccccc1-n1cccc1)N1N=C(C(F)F)CC1(O)C(F)F (configuration not stated)
10% | -7% | COc1cc(OC)cc(C(=O)Nc2ccc(CN3CCCCC3)cc2)c1
-1% | 1% | COc1ccc(/C=N/NC(=O)Cn2cc(C(F)(F)F)ccc2=O)cc1
-3% | -3% | CCc1cccc(C)c1NC(=O)c1cc(C)nc2c1c(C)nn2-c1cccc(Cl)c1C
-6% | -9% | C=CC[C@H](CC(=O)N(CCO)Cc1ccccc1)C(=O)NC[C@@H](OC(=O)[C@@H](CC=C)Cc1ccc(F)cc1)c1ccccc1
-18% | -7% | CC(C)NC(=O)Cn1nnc(-c2ccc(Cl)cc2)n1
1% | -6% | Cc1cccc(CSC(Nc2ccc(F)cc2)=C(C#N)C#N)c1
-3% | -9% | O=[N+]([O-])c1ccc(C2(O)CN(c3ccccc3)C3=[N+]2CCS3)cc1 (configuration not stated)
9% | -2% | NC(=O)CC1SC(N)=NC1=O (configuration not stated)
-12% | 4% | O=C(c1ccc(C(F)(F)F)cc1)C1CCCN(C(=O)CN2C(=O)CSC2=O)C1 (configuration not stated)
-6% | 1% | CCOCCCNC(=O)c1ccc2nc(CCc3ccccc3)oc2c1
1% | -5% | Cc1ccc2nc(SCc3nnc(-c4ccccc4Br)o3)[nH]c2c1
-12% | -19% | CC1CCC(NS(=O)(=O)c2ccc3c(c2)CC(=O)N3)CC1 (configuration not stated)
-20% | -1% | CN(C)CCN(C(=O)c1ccc2c(c1)CCCC2)c1nc2c(F)cccc2s1
6% | -1% | CCc1cc2c(SCC(=O)Nc3cc(C)on3)ncnc2s1
1% | -5% | CCOC(=O)c1cnn2c(C(F)F)cc(C3CC3)nc12
4% | -4% | Cc1nc2ccccc2c2oc(C(=O)NC3CC3)cc12
-3% | 0% | CSCCC(NC(=O)COc1ccccc1)C(=O)N1CC(C)OC(C)C1 (configuration not stated)
-13% | ? | COc1cc2c(cc1OC)[C@H](C)N(C(=S)Nc1ccc(F)cc1)CC2
12% | . | CC(C)C[C@H](NC(=O)OCC1c2ccccc2-c2ccccc21)C(=O)O
2% | -8% | CCCCCC(=O)N1CC2(CC(c3cccc(NC(=O)COc4ccc(Cl)cc4)c3)=NO2)C[C@@H]1C(N)=O (some centres not stated)
2% | 0% | Cn1c(SCC(N)=O)nnc1C1CCN(S(=O)(=O)c2ccccc2C(F)(F)F)CC1
-18% | -11% | CSc1ccc(Cl)c(C(=O)NCCOc2cc(C)ccc2C(C)C)c1
-9% | 0% | O=C(Nc1ccccn1)c1ccc([N+](=O)[O-])cc1Cl

# 2 of the compounds above, with bars between the fields.
molecule | FEN1 inhibitor | GCN5L2 inh
CSc1ccc(Cl)c(C(=O)NCCOc2cc(C)ccc2C(C)C)c1 | -18% | -11%
Cc1nc2ccccc2c2oc(C(=O)NC3CC3)cc12 | 4% | -4%

# (cont.)
FEN1 inhibitor | GCN5L2 inh | SMILES
11% | 0% | CCOc1ccc(S(=O)(=O)N2CCC(C(=O)N3CCCCCC3)CC2)cc1C
-1% | -6% | NC(=O)c1ccccc1NC(=O)COC(=O)CSCc1cccc(Cl)c1
-18% | 4% | CCOC(=O)N1CCC(NC(=O)CN2C(=O)COc3ccc(C(C)(C)C)cc32)CC1
-4% | 1% | NC(=O)CC(NC(=O)Cc1ccc(Br)cc1)c1ccc(NCCc2ccc(Cl)cc2)c([N+](=O)[O-])c1 (configuration not stated)
3% | -3% | FC(F)(F)c1cccc(N2CCN(CC3CC=CCC3)CC2)c1 (configuration not stated)
-1% | -2% | O=C(NCc1ccc(Cl)cc1)c1cnccn1
17% | -2% | CCOc1ccc(CCNC(=O)c2cc(=O)[nH]c3ccc(S(=O)(=O)N(CC)CC)cc23)cc1OCC
12% | -9% | CN(C(=O)CN1C(=O)S/C(=C\c2ccc(Cl)cc2)C1=O)C1CCS(=O)(=O)C1 (configuration not stated)
7% | -2% | CC(C)(C)n1cc(S(=O)(=O)c2ccccc2)[nH]c1=O
-2% | -6% | O=C(O)c1ccc(COc2ccc(/C=N/NC(=O)c3cccs3)cc2)cc1
-10% | -27% | O=C(NC(=S)NC(CO)Cc1ccccc1)c1ccc(F)cc1 (configuration not stated)
7% | -4% | COc1cc2c3nnc(-c4ccc(F)cc4)c-3cn(Cc3ccc(C)cc3)c2cc1OC
-6% | -1% | C#CCNC(=O)C1=C[C@@H](C2CCCCC2)[C@H](CCCO)[C@@H](OCC)O1
1% | -5% | O=C(c1ccc(Br)cc1)N1CCC2(CC1)NCCc1[nH]cnc12
17% | 1% | Cn1c(CNC2CCCCC2)nc2ccccc21
12% | -9% | O=C1C=C(c2ccc(Oc3ccccc3)cc2)C[C@@H](c2ccc(Cl)cc2)C1

# Next section, overlapping the part above by 7 compounds.
FEN1 inhibitor | GCN5L2 inh | SMILES
-2% | -6% | O=C(O)c1ccc(COc2ccc(/C=N/NC(=O)c3cccs3)cc2)cc1
-10% | -27% | O=C(NC(=S)NC(CO)Cc1ccccc1)c1ccc(F)cc1 (configuration not stated)
7% | -4% | COc1cc2c3nnc(-c4ccc(F)cc4)c-3cn(Cc3ccc(C)cc3)c2cc1OC
-6% | -1% | C#CCNC(=O)C1=C[C@@H](C2CCCCC2)[C@H](CCCO)[C@@H](OCC)O1
1% | -5% | O=C(c1ccc(Br)cc1)N1CCC2(CC1)NCCc1[nH]cnc12
17% | 1% | Cn1c(CNC2CCCCC2)nc2ccccc21
12% | -9% | O=C1C=C(c2ccc(Oc3ccccc3)cc2)C[C@@H](c2ccc(Cl)cc2)C1
1% | -5% | Cc1cc(C)cc(NC(=O)Cn2c3ncccc3c(=O)n2-c2ccc(C)c(C)c2)c1
-17% | -8% | COc1ccccc1NS(=O)(=O)c1ccc(C(=O)N2CCCCCCC2)cc1
-1% | 0% | COC(=O)C1(C(O)C(=O)c2ccc(C)cc2C)CCCCC1 (configuration not stated)
-2% | 0% | Cc1cccc(CC(=O)NCCS(=O)(=O)N2CCN(c3cccc(Cl)c3)CC2)c1
-1% | 3% | CC1=CC(C)(C)N2C(=O)C3(NCCc4c3[nH]c3ccccc43)c3cccc1c32 (configuration not stated)
-16% | -16% | Cc1ccc(-c2noc(CN3CCN(c4ccccc4F)CC3)n2)cc1
-10% | -10% | O=C(OCC(=O)c1ccccc1Br)c1ccncc1
-9% | -7% | Cn1ccc(C(=O)OCC(=O)Nc2cccc3ccccc23)n1
7% | -13% | Cc1noc(C)c1C(=O)Nc1nc(-c2cccs2)cs1
7% | -9% | O=C1OC(C(=O)NCc2ccccc2)Cc2ccccc21 (configuration not stated)
2% | -2% | COc1ccc(S(=O)(=O)N2CCN(Cc3cccs3)CC2)cc1OC
1% | -2% | O=C(CCl)NNc1cccc(Cl)n1
-16% | -8% | Cn1cc(C2CC(c3ccccc3)=NN2C(=O)c2ccccc2)c2ccccc21 (configuration not stated)
-2% | -8% | S=c1[nH]nc(C2CC2)n1Cc1ccco1
-8% | -8% | CCCCCCn1c(/C=C/c2ccccc2)nc2ccccc21
4% | 2% | CCN(CC)C(=O)CCCC(=O)N(CC)CC
-19% | -17% | Clc1cccc(-c2nc3nc4ccccc4nc3n2Cc2ccco2)c1
17% | -3% | CCN(C(=O)COC(=O)c1ccc(Cl)nc1)C1CCS(=O)(=O)C1 (configuration not stated)
-15% | 0% | COc1ccc(C(=O)NC2CCSc3ccccc32)cc1 (configuration not stated)
-7% | -2% | COc1cc2nc(CN3CCOCC3)n(CC(=O)N3CCCCCC3)c(=O)c2cc1OC
-5% | 21% | CCN(CC)CCNC(=O)c1ccc(NC(=O)c2ccc(F)cc2F)cc1
13% | -5% | O=C(NC(=S)NNS(=O)(=O)c1ccccc1)c1cccnc1
-5% | -1% | CC1Sc2ccc(S(=O)(=O)N3CCC(C(=O)N(C)Cc4ccccc4)CC3)cc2NC1=O (configuration not stated)
-4% | -5% | CCOC(=O)C1=CN(CC)S(=O)(=O)NC1c1ccccc1 (configuration not stated)
0% | -3% | CC1(c2cccc3ccccc23)NC(=O)N(CC(=O)NC2CCS(=O)(=O)C2)C1=O (configuration not stated)
-9% | -1% | C(=N\n1cnnc1)/c1cccc(Oc2ccccc2)c1
7% | 0% | Cc1nc(NC(=O)CSc2nnnn2Cc2ccccc2)sc1C
2% | -2% | CSc1nsc(SCC(=O)Nc2ccc(C(N)=O)cc2)n1
4% | -4% | CCOc1ccc(-n2nnc3c(=O)n(CC(=O)N4CCCc5ccccc54)cnc32)cc1
-16% | -4% | O=C(c1c[nH]c(C(=O)N2CCN(c3ccccc3F)CC2)c1)c1cccc(Cl)c1Cl
2% | -13% | CCOC(=O)CSc1nc2ccc(NC(=O)c3ccccc3)cc2s1
-10% | -4% | COc1cccc(C(=O)N2CCN(S(C)(=O)=O)CC2)c1
6% | -1% | Cc1nonc1NC(=O)CSc1nnc(-c2ccoc2C)n1C
6% | 2% | CC1=C(C(=O)Nc2ccccc2C)C(c2cccs2)NC(=S)N1 (configuration not stated)
5% | -13% | O=C(COC(=O)c1cc(-c2ccccc2)nc2ccccc12)NCC1CCCO1 (configuration not stated)
-23% | -10% | O=C(c1ccc(COc2ccc(Cl)cc2)o1)N1N=C(C(F)F)CC1(O)C(F)F (configuration not stated)
0% | -6% | OCCOCCNc1ncnc2c1c(-c1ccccc1)cn2-c1ccccc1
12% | -6% | Cn1c(SCC(=O)NC2CCCCC2)nnc1-c1cccc(N)c1
-12%&-18%&-8% | -3%&-6% | COc1ccc(C2Nc3ccccc3C(=O)N2Cc2ccco2)cc1CN1C(=O)c2ccccc2C1=O (configuration not stated)
-2% | -6% | COc1ccc2nc(NC(=O)CSc3nc(SC)ns3)sc2c1
-1% | -3% | O=C(COc1ncnc2ccccc12)Nc1ccc(S(=O)(=O)N2CCOCC2)cc1
14% | -4% | COc1ccc(Br)cc1CN(C)CC(=O)NCCc1ccccc1
-1% | -5% | O=C(CN1C(=O)NC2(CCOc3ccccc32)C1=O)NCC(F)(F)F (configuration not stated)
-5% | -17% | C/C(=C\c1ccccc1)C(=O)n1nnc2ccccc21

# Single values from the results shown:
# FEN1 inhibitor, COc1ccc(Br)cc1CN(C)CC(=O)NCCc1ccccc1 is entered as 14%
# GCN5L2 inh, O=C(CN1C(=O)NC2(CCOc3ccccc32)C1=O)NCC(F)(F)F (configuration not stated) is entered as -5%
# GCN5L2 inh, O=C(COc1ncnc2ccccc12)Nc1ccc(S(=O)(=O)N2CCOCC2)cc1 is entered as -3%
# FEN1 inhibitor, C/C(=C\c1ccccc1)C(=O)n1nnc2ccccc21 is entered as -5%
